AID504770 = E. coli YBA685 growth inhibition, screen for V. cholerae RctB inhibitors. E. coli YBA685 rctB-dependent plasmid, OD600 growth, 3 h; stronger effect = lower value. hit rate 0.27% among 130,000. z-score (no concentration beside the values);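 active = z-score under -2 on both plates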;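 note: wells of about 30 µL received 100 nL stock; score is relative to mean and SD of the test wells; the first replicate is given; strong numbers were not always called active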
CapD inh = CapD enzyme inhibition. purified CapD enzyme, fluorescence intensity read-out; stronger effect = lower value; some hits fall short of the stated cut. z-score (concentration not given with the values). hit rate 0.23% among 140,000;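 active = z-score under -4 in either of two replicates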;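 note: stock transfer was 100 nL into about 40 µL; score is relative to mean and spread of the plate; one replicate is shown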
The depositor's hits bear a star; · = no result given. Rows are unselected. About 0.37% of those tested had a hit in this group.

Value order: AID504770, CapD inh
CC1CCCC(NC(=O)COC(=O)COc2ccccc2)C1C (stereo not given)
 : -1.6, 0.055
COC(=O)c1[nH]c2c(c1C)C(=O)C(C(=O)OC)C(C)C2 (stereo not given)
 : -0.35, -0.48
O=C(COc1ccccc1)N/N=C/c1c[nH]c2cnc(OCc3ccccc3)cc12
 : ·, 9.6
O=S(=O)(NCc1ccc2c(c1)CCO2)c1ccc(F)c(F)c1
 : -0.65, 0.39
O=C(O)c1ccccc1C(=O)Nc1ccccc1
 : ·, -0.005
NC(=O)Cn1c(=O)n(-c2ccccc2)c(=O)c2oc3ccccc3c21
 : 0.8, ·
CCN1C2=NCCN2c2ccccc21
 : ·, -0.28
CC(NC(=O)C1CCC(CNS(=O)(=O)c2cccc3nsnc23)CC1)c1ccccc1 (stereo not given)
 : -0.15, -0.19
CCCn1c(SC)nnc1SC
 : ·, -0.38
Cc1cc(-c2cc(C)[nH]n2)n[nH]1
 : -0.65, -0.05
COC(=O)c1ccc(CS(=O)(=O)c2ccccc2OC)o1
 : -0.15, -0.86
COc1ccc(-c2nn(-c3ccccc3)cc2CC#N)cc1OC
 : 0.05, 3
COc1ccc(-c2cc3nc(C)c(CCC(=O)NCc4ccc5c(c4)OCO5)c(C)n3n2)c(OC)c1
 : 0.3, -0.11
Nc1ccc2c(c1)Nc1ccccc1CC2
 : -0.95, 2.1
CN1C=C/C(=C\c2cc[n+](C)c3ccccc23)c2ccccc21
 : 0.6, -0.065
CCOC(=O)c1cccc(N2C(=O)C3C4c5ccccc5C(CC)(c5ccccc54)C3C2=O)c1 (stereo not given)
 : ·, -0.23
COc1ccc(N2CCN(C(CNC(=O)c3cccc(Cl)c3)c3ccc4c(c3)OCO4)CC2)cc1 (stereo not given)
 : -0.15, ·
CSCCC(C(=O)O)n1c(-c2ccc3ccccc3n2)n[nH]c1=S (stereo not given)
 : -1.1, -0.29
Oc1ccc(CNC2CCCCC2)cc1
 : -0.2, -0.47
O=C(NCc1nc2ccccc2[nH]1)OCCc1cccc2ccccc12
 : ·, 1.6
CCCNC(=O)C1CCN(c2nnc(-n3c(C)ccc3C)s2)CC1
 : 0, -0.2
C=CCn1c(SCc2nc3ccccc3c(=O)n2CC#N)nc2ccc(Cl)cc2c1=O
 : 0.75, ·
COc1cc(C(=O)Nc2cc(C(=O)NCC(C)C)ccc2N2CC3CC(C2)c2cccc(=O)n2C3)cc(OC)c1OC (stereo not given)
 : ·, -0.11
O=C(CSc1nc(-c2ccccc2)c(-c2ccccc2)o1)N1CCOCC1
 : -0.6, 26
CN(C)c1ccc(C=Nc2ccc3c(c2)OCO3)cc1
 : -0.5, -0.28
CCN1CCCC1CNC(=O)Cn1nc(C)n2cccc2c1=O (stereo not given)
 : -0.45, -0.32
COC(=O)CC(C(=O)Nc1cc(C(=O)OC)cc(C(=O)OC)c1)N1CCN(C)CC1 (stereo not given)
 : 0.5, -0.43
Nc1nc(C23CC4CC(CC(C4)C2)C3)cs1
 : -0.55, 0.31
Cc1ccc2c(c1)N(S(=O)(=O)c1c(C)[nH]c(=O)[nH]c1=O)CCO2
 : -0.7, -0.13
CCCC(=O)n1nc(CCC)c2c1CC(C)(C)CC2=O
 : 0.05, 0.18
O=C(NCC(=O)N1CCCC1)c1ccc(Br)o1
 : 1, 0.38
CC(NC(=O)c1ccc(CO)cc1)C(=O)O (stereo not given)
 : 0.2, ·
O=C(NNc1ccc(OC(F)(F)F)cc1)c1c(Cl)cccc1Cl
 : ·, 0.82
CCC(C)n1c(SCC(=O)NCCc2ccc(OC)c(OC)c2)nc2ccsc2c1=O (stereo not given)
 : -1.1, -0.31
CC(=O)[C@@]1(O)C(C)CC2C3CC[C@H]4CC(O)CCC4(C)C3[C@H](O)CC21C (stereo not given in full)
 : ·, 0.15
Ic1ccc(-c2nc3ccccc3nc2-c2ccc(I)cc2)cc1
 : ·, 0.38
COc1ccc(C2CC(=O)C3=C(C2)Nc2ccccc2NC3c2ccc(Cl)c([N+](=O)[O-])c2)cc1 (stereo not given)
 : ·, -1.5
CC(c1ccccc1)n1c(NC(=O)c2ccco2)c(S(=O)(=O)c2ccccc2)c2nc3ccccc3nc21 (stereo not given)
 : -0.35, ·
Nc1ccc2nn(-c3ccccc3)nc2c1
 : 0, 37
Cc1cc(C)nc(SCc2cnc(C)nc2N)n1
 : 0.35, -1.1
COC(=O)NCC(c1ccco1)N1CCN(c2ccccc2)CC1 (stereo not given)
 : 0.15, ·
CSc1scc2c1/C(=N\O)CC(C)(C)C2
 : ·, -0.33
O=C(CSc1ccc(C(F)(F)F)cn1)c1ccc(Cl)cc1
 : 0, -0.35
Cc1cc(C)nc(NS(=O)(=O)c2ccc(NC(=O)c3cc(Cl)cc(Cl)c3)cc2)n1
 : ·, 0.61
Cc1nnc(SC(C)C(=O)NCc2ccco2)n1C1CCCCC1 (stereo not given)
 : 1.5, ·
COc1cc(-n2cc(-c3ccccc3)n(CC(=O)Nc3ccccc3C)c2=O)cc(OC)c1OC
 : -0.9, 0.09
Cc1ccc(N/C=C/C(=O)c2ccccc2OCc2ccc(Cl)cc2)cc1
 : ·, 0.47
CC(/C=C1\SC(=S)N(CCC(=O)Nc2ccccc2O)C1=O)=C\c1ccccc1
 : -0.8, -0.93
CN(CC(=O)NC1CC1)S(=O)(=O)c1ccccc1
 : -0.75, 0.24
O=S(=O)(c1ccccc1)N1CCCc2ccccc21
 : 1.1, ·
CC1(C)CC(=O)C(SC(F)(F)F)C(=O)C1
 : -0.6, 0.33
CSc1sc(C)cc1C(N)=O
 : -0.3, 0.04
COc1ccc(CNC(=O)c2ccc3c(c2)C(=O)N(Cc2ccco2)C3=O)cc1
 : -0.3, 1.1
COc1cc(/C=C2\SC(N(C)c3ccc(O)cc3)=NC2=O)ccc1OCC(=O)O
 : -0.5, -0.25
COC(=O)c1cc(NC(=O)c2cc3cc(OC)ccc3oc2=O)cc(C(=O)OC)c1
 : ·, -1.9
Cc1cccc(CSc2nc3nc[nH]c3c(=O)[nH]2)c1
 : -1.8, 0.98
CCN1C(=O)c2cccc3c(S(=O)(=O)Nc4nc(C)cs4)ccc1c23
 : 0.35, -1.2
O=C(CCN1C(=O)c2ccc([N+](=O)[O-])cc2C1=O)Nc1ccc(C(=O)O)cc1
 : ·, 0.17
CCOc1ccccc1C(=O)NC1CCS(=O)(=O)C1 (stereo not given)
 : -0.1, ·
Nc1n[nH]c(-c2ccc(Cl)cc2)c1Cl
 : -0.1, ·

Remaining list, next part.
Value order: AID504770, CapD inh
Cc1c(NC(=S)NC(C)(C)C)c(=O)n(-c2ccccc2)n1C
 : -0.35, ·
NS(=O)(=O)c1ccc2[nH]c(=S)[nH]c2c1
 : -0.05, ·
CCC(=O)NCCCc1nc2ccccc2n1CC
 : 1.6, -0.49
N#CC(C(=O)NCc1cccs1)c1ccccc1 (stereo not given)
 : -0.55, 0.12
CSc1nc2cccc(F)c2c(=O)n1-c1ccc(C)c(C)c1
 : -0.65, 0.01
CCOC(=O)c1cc(C#N)c(NCc2ccc(Cl)cc2)nc1-c1ccccc1
 : ·, 0.02
CN(C)C1c2cccc3cccc(c23)C1NS(=O)(=O)c1ccccc1 (stereo not given)
 : ·, -0.6
Cc1ccc(NC(=O)CSc2nc3c(c(=O)n2-c2ccccc2)SCC3)cc1
 : -0.4, ·
CCCCC(=O)Nc1nnc(-c2ccc(Cl)s2)o1
 : -0.5, ·
Cc1cc(=O)oc2c1c(C(F)(F)F)nn2C
 : -0.15, 0.6
O=C(CN1C(=O)S/C(=C\c2ccc(N3CCOCC3)o2)C1=O)Nc1ccccc1F
 : 0.2, 0.065
O=C1/C(=C/c2ccc([N+](=O)[O-])cc2)C=C(c2ccccc2)N1c1ccccc1O
 : ·, -0.69
CC1=C(C(=O)OCc2ccccc2)C2(C(=O)Nc3ccccc32)C(C(=O)OC(C)C)=C(N)O1 (stereo not given)
 : ·, -0.15
COc1ccc(C=Nc2ccccc2C(=O)O)cc1
 : -0.65, 47
O=C(O)C1CC=CCC1C(=O)Nc1ccccc1S (stereo not given)
 : -0.85, -0.12
O=C(NCCS(=O)(=O)N1CCCCC1)c1ccccc1
 : -0.5, ·
O=C(/C=C/c1cccs1)NC(=S)N1CCCC1
 : 0.45, ·
N#C/C(=C/Nc1cccc2ccccc12)c1nc2ccccc2o1
 : 0.4, ·
O=C(OCc1ccccc1SC(F)(F)F)N1CCN(Cc2ccccc2OCc2ccccc2)CC1
 : ·, 0.025
CC1CCCN(CCCNS(=O)(=O)c2cc(Br)cc3c2N(C(=O)C2CC2)CC3)C1 (stereo not given)
 : -0.95, -0.37

Next part, starting with the last five of the part before.
Value order: AID504770, CapD inh
O=C(NCCS(=O)(=O)N1CCCCC1)c1ccccc1
 : -0.5, ·
O=C(/C=C/c1cccs1)NC(=S)N1CCCC1
 : 0.45, ·
N#C/C(=C/Nc1cccc2ccccc12)c1nc2ccccc2o1
 : 0.4, ·
O=C(OCc1ccccc1SC(F)(F)F)N1CCN(Cc2ccccc2OCc2ccccc2)CC1
 : ·, 0.025
CC1CCCN(CCCNS(=O)(=O)c2cc(Br)cc3c2N(C(=O)C2CC2)CC3)C1 (stereo not given)
 : -0.95, -0.37
C=CCN1C(=O)/C(=C\c2cc3c4c(c2)CCCN4CCC3)C(=O)NC1=S
 : 0, 0.78
COC(=O)C1C(=O)NC(SCC(=O)Nc2cccc(C(C)=O)c2)=C(C#N)C1c1ccc(Cl)cc1 (stereo not given)
 : ·, -0.12
Cc1ccc(S(=O)(=O)c2ccc(-c3ccccc3)cc2)cc1
 : 0.5, 0.86
Cc1cccc(NC2=NCC(=O)N2Cc2ccccc2)c1
 : 0.6, ·
COc1nc(NC(=O)NS(=O)(=O)Nc2cccc3cccnc23)nc(OC)n1
 : 0.55, 0.4
COc1cc(Br)cc(C=Nc2cccc(C(F)(F)F)c2)c1O
 : ·, 0.14
CC(C(=O)N1CCCCCC1)n1sc2ccccc2c1=O (stereo not given)
 : -0.6, -0.44
CCCCNC(=O)c1ccc(CS(=O)Cc2ccc(C)cc2)o1 (stereo not given)
 : 0.6, 0.06
BrC12CC3CC(C1)CC(Br)(C3)C2
 : ·, 0.03
O=C(CC1SC(=O)NC1=O)NCc1ccccc1 (stereo not given)
 : ·, -0.52
CCOc1ccc(S(=O)(=O)n2cnc3ccccc32)cc1
 : -0.85, 70
O=C(Cc1ccccc1)n1cnc2ccccc21
 : 2.4, 0.17
CC(=O)C1=C(C)OC(N)=C(C#N)C1c1cccs1 (stereo not given)
 : ·, -0.77
O=C(NC1CC1)c1cc(=S)[nH]c2ccccc12
 : 0.1, ·
C=CCn1c(SCC(=O)N2CCOCC2)nc2sc3c(c2c1=O)CCC3
 : ·, -1.1
O=C(N/N=C/c1c(F)cccc1Cl)c1cc(C2CC2)nc2ccccc12
 : ·, 0.71
CCOC(=O)/C(N=O)=C(/O)c1ccccc1
 : -0.6, 0.12
Cc1cc(-c2onc(C)c2CO)no1
 : -0.25, -0.67
CC(=O)NS(=O)(=O)c1ccc(NC(=O)COc2ccc(Cl)cc2C)cc1
 : -0.15, 0.17
CCOC(=O)C1CCN(C(=O)c2cncc(-c3cccs3)c2)CC1
 : -0.2, 1.1

The last five records of the part above open the next one.
Value order: AID504770, CapD inh
O=C(N/N=C/c1c(F)cccc1Cl)c1cc(C2CC2)nc2ccccc12
 : ·, 0.71
CCOC(=O)/C(N=O)=C(/O)c1ccccc1
 : -0.6, 0.12
Cc1cc(-c2onc(C)c2CO)no1
 : -0.25, -0.67
CC(=O)NS(=O)(=O)c1ccc(NC(=O)COc2ccc(Cl)cc2C)cc1
 : -0.15, 0.17
CCOC(=O)C1CCN(C(=O)c2cncc(-c3cccs3)c2)CC1
 : -0.2, 1.1
COc1cc(OC)nc(NC(=O)CS(=O)(=O)c2ccccc2)n1
 : -0.1, -0.48
CC1CC(=O)Nc2ccccc2N1C(=O)COC(=O)c1cn(C)c2ccccc12 (stereo not given)
 : 1.9, ·
COc1ccc(N2CCN(C(=O)CSc3nccn3C)CC2)cc1
 : 0.3, ·
CCOC(=O)Cn1cnc2sc(-c3ccccc3)cc2c1=O
 : 0.05, 5.4
CCC(C)NS(=O)(=O)c1cccc2nsnc12 (stereo not given)
 : 1.5, -0.77
CN1N=C(c2coc3ccccc23)CC1(O)C(F)(F)F (stereo not given)
 : -0.2, 67
Cc1ccc(N2CCN(/N=C3/C(=O)Nc4c(Cl)cc(Cl)cc43)CC2)cc1
 : -0.85, ·
O=C(Nc1cccc(F)c1)/C(=C\c1cccs1)NC(=O)c1cccs1
 : 0.1, ·
Cn1cccc1/C=N/NC(=O)c1cccc(S(=O)(=O)NCc2ccccc2)c1
 : 0.1, ·
CC(C)C(NS(=O)(=O)c1cccs1)C(=O)NCc1cccnc1 (stereo not given)
 : 1.4, -0.3
C[C@@H](C(=O)Nc1nc2ccccc2s1)N1C(=O)C2CC=CCC2C1=O (stereo not given in full)
 : -0.05, ·
COc1cc(C(F)(F)F)nc(-c2ccccn2)n1
 : -0.2, -0.53
Nn1c(Cc2cccc3ccccc23)nnc1SC1CCOC1=O (stereo not given)
 : 0.25, ·
CC(=O)C1=NN(c2ccccc2)C(c2ccc(N(C)C)cc2)N1c1ccc(Cl)c(Cl)c1 (stereo not given)
 : ·, 0.15
CN(C)C(=O)COC(=O)c1ccc(Oc2ccc(C(=O)OCC(=O)N(C)C)cc2)cc1
 : 0.35, ·
COc1ccc(S(=O)(=O)N2c3cccc4cccc(c34)S2(=O)=O)cc1
 : -0.3, ·
Cc1cnn2c1nnc1c3ccccc3ccc12
 : -1.9, ·

Screens (PubChem BioAssay)
